# Bioassay records deposited in PubChem by National Center for Advancing Translational Sciences (NCATS).
# VDR inhibitor = Inhibitors of the vitamin D receptor (VDR): qHTS | Vitamin D3 receptor (Homo sapiens), P11473 | VDR-SRC2-3 peptide fluorescence polarization, 2 h | Potency, µM, inactives show max response, negative = inhibition, usual class: inhibitors | hit rate 0.93% among 400,000; active = well fitted inhibition curve with a large enough effect; inconclusive = small, poorly fitted or top-dose-only effect, or another doubt; inactive = no such curve, though single readings can be large or run the other way; also: series mostly up to about 120 µM
# Target sequence (P11473 whole entry, looked up): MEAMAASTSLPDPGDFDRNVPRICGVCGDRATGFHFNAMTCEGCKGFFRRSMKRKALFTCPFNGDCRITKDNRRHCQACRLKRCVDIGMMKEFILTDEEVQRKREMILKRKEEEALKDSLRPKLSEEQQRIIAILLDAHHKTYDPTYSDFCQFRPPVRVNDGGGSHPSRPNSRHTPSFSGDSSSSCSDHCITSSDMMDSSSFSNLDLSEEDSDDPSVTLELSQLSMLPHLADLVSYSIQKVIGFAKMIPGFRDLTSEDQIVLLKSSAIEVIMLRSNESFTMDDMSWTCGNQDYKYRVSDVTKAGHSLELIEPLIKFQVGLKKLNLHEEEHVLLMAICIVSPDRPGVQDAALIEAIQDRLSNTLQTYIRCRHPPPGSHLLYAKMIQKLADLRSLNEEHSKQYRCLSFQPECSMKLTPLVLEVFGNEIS
#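 VDR–SRC2-3 interaction, FP format. Cmpds 23 nl via pintool, brief spin, 2 h ambient incubation.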
# The depositor's hits bear a star; ? = inconclusive; & = joins results of further samples; ! = a repeat was not active. % is scaled to controls: 0 for no effect and ±100 for the full control effect; potency is read from the fitted curve at half-maximal effect.
Compound | VDR inhibitor
CCCCCOC(=O)c1ccc(N2C(=O)C3C4C=CC(C4)C3C2=O)cc1 (stereo unspecified) | 4.4%
CC(=O)c1sc(N/N=C\c2c(O)ccc3ccccc23)nc1C | 13.7%
CCN(CC(=O)Nc1ccccc1C(F)(F)F)C(=O)c1ccccc1OCc1ccc(F)cc1 | 6.9%
CCCC(=O)Nc1cc(C)c(NC(=O)c2ccccn2)cn1 | -9.1%
CCOC(=O)N1CCc2c(sc3c2c(=O)n(-c2ccc(CC)cc2)c(=O)n3C)C1 | -8.0%
Cc1cc(C(N)=O)c2ccccc2n1 | -9.9%
CCC1=Nc2cc(C(=O)NCCCN3CCN(C)CC3)ccc2Sc2ccccc21 | 1.2%
CC(=NNS(=O)(=O)c1ccc([N+](=O)[O-])cc1)c1ccc(C)cc1 | 9.6%
COc1cc2c3nnc(-c4ccc(F)cc4)c-3cn(Cc3ccccc3)c2cc1OC | 18.2%
Cc1cccc(OCCCCCN2CCOCC2)c1 | 0.4%
Clc1ccc(CCNC(c2nnc(-c3ccccc3)o2)c2ccccc2Cl)cc1 (stereo unspecified) | 8.4%
CCOc1ccc(-c2ncnn2-c2sc3c(c2C#N)CCCCC3)cc1 | 10.1%
O=C(C1=C[C@H](c2ccc(C(F)(F)F)cc2)C[C@H](OCCCCO)O1)N1CCOCC1 | -14.4%
COc1ccc(CNC(=O)COC(=O)c2n[nH]c3ccccc23)cc1 | 3.7%
Fc1ccc(N2Cc3ccsc3C=N2)cc1 | -14.5%
COc1ccc(C(=O)NNC(=O)Cc2ccc([N+](=O)[O-])cc2)cc1 | -1.1%
O=C(NCc1ccccc1)c1nncc(-c2ccccc2)n1 | -19.2%
CCN(C(=O)c1ccc(N2CC3CC(C2)c2cccc(=O)n2C3)c(NC(=O)c2ccncc2)c1)c1cccc(C)c1 (stereo unspecified) | -7.8%
COc1ccc(Cn2c(C(=O)O)c(CNCc3cccc(OC)c3)c3ccc(C)cc32)cc1 | 5.5%
O=C(O)CSCC(=O)Nc1ccccc1 | 20.5%

# 4 compounds picked at random from the list so far, as already listed:
Compound | VDR inhibitor
O=C(NCc1ccccc1)c1nncc(-c2ccccc2)n1 | -19.2%
COc1ccc(Cn2c(C(=O)O)c(CNCc3cccc(OC)c3)c3ccc(C)cc32)cc1 | 5.5%
CCN(C(=O)c1ccc(N2CC3CC(C2)c2cccc(=O)n2C3)c(NC(=O)c2ccncc2)c1)c1cccc(C)c1 (stereo unspecified) | -7.8%
COc1ccc(CNC(=O)COC(=O)c2n[nH]c3ccccc23)cc1 | 3.7%

# Following part
Compound | VDR inhibitor
Cc1ccc(NC(=O)C2CC(=O)N(C(C)C)C2)cc1Cl (stereo unspecified) | 9.4%
O=C(C[n+]1cc(-c2ccc(Cl)cc2)n2c1CCC2)Nc1nc(-c2ccc(F)cc2)cs1 | 8.6%
COc1ccc(/C=N/NC(=O)C2C3CCCCC32)cc1OC (stereo unspecified) | -15.0%
CC(C)NC(=O)c1nn(C)c2ccccc12 | -8.8%
COc1ccc(CCNC(=O)C(=O)c2c(C)[nH]c3ccccc23)cc1 | -2.4%
O=S(=O)(CCN1CCN(c2ccccn2)CC1)c1ccc(F)cc1 | -18.3%
CCOC(=O)c1c(C)n(CC(O)CN(C)C)c2cc(Br)c(OC)cc12 (stereo unspecified) | 6.4%
CCCn1c(N)c(N(CCOC)C(=O)c2cc3ccccc3cc2OC)c(=O)[nH]c1=O | -4.4%
CC(C)(C)c1nnc(NC(=O)NS(=O)(=O)c2ccccc2)s1 | -7.1%
C/C(=N\NC(=O)c1ccc2c(c1)OCO2)c1cccnc1 | -10.6%
COc1cc(C)ccc1S(=O)(=O)NC1CC(C)(C)NC(C)(C)C1 | -2.8%
O=C(CCCc1ccccc1)Nc1cccc([N+](=O)[O-])c1 | -22.9%
Nc1c(C(=O)c2ccccc2)sc(Nc2ccccc2)c1S(=O)(=O)c1ccccc1 | 2.0%
CCOc1ccc2nc(-c3ccc(OC)c(OC)c3)cc(C(=O)O)c2c1 | 14.3%
CCc1[nH]nc(C(=O)N2CCCC(CNS(=O)(=O)c3cccs3)C2)c1C (stereo unspecified) | -14.0%
O=C(/C(=N\Nc1ccc([N+](=O)[O-])cc1)Sc1nnnn1-c1ccccc1)c1ccccc1 | -18.4%
CC(Sc1n[nH]c(=O)n1Cc1ccccc1)C(=O)NCC1CCCO1 (stereo unspecified) | ?
CCN(CC)C(=O)CSc1nnc(-c2ccco2)n1N | -4.9%
Cc1ccc(-n2nc(CO)c(C(=O)NCc3cccnc3)n2)cc1C | 5.0%
COc1ccc(C(O)c2ncc(C(F)(F)F)cc2Cl)cc1 (stereo unspecified) | 8.1%
NC(=O)C1CCN(c2cc(N3CCOCC3)ccc2[N+](=O)[O-])CC1 | -18.3%
CN(CC(=O)Nc1ccc(Cl)c(Cl)c1)CC(=O)Nc1ccc2c(c1)OCO2 | -12.9%
CCCCOc1ccc(C(=O)NCC(=O)NCC(=O)OCC)cc1 | 3.0%
Cc1ccc(S(=O)(=O)Nc2ccc3c(c2)nc(CCN2CCN(c4ccccn4)CC2)n3C)cc1 | -19.5%
COC(=O)c1sccc1NC(=O)c1csc(C)c1 | 21.6%
COc1ccc(Cc2nc3ccc(C(=O)N4CCCC4)cc3o2)cc1 | -2.3%
COc1ccc(NC(=O)CSC(C)c2nc3ccccc3c(=O)[nH]2)cc1 (stereo unspecified) | 11.8%
COC(=O)C1=C(C)NC2=C(C(=O)CC(C)(C)C2)C1c1cn(Cc2ccc(Br)cc2)nc1-c1ccccc1 (stereo unspecified) | 12.2%
Cc1ccc(C(=O)c2c3ccc([N+](=O)[O-])cc3[n+]([O-])n2CCC(N)=O)cc1 | -24.5%
Cc1ccc(NC(=O)CSCC#N)cc1 | -4.7%
O=C1c2ccncc2C(=O)N1c1cccc(Cl)c1 | -1.9%
C=C(C)c1cccc(C(C)(C)NC(=O)NCC2CCCO2)c1 (stereo unspecified) | -6.2%
O=C(Cn1ncc2ccsc2c1=O)N1CCN(c2ccccc2)CC1 | 11.7%
CCC(C)[C@H](NC(=O)N1CCCCC1)C(=O)OC (stereo partly specified) | -15.9%
C=CCn1c(SCC(=O)Nc2nccs2)nnc1-c1ccco1 | -19.6%
COC(=O)C1CCN(C(=O)COC(=O)c2ccc(N3CCCC3=O)cc2)CC1 | 6.4%
CC(C)=CCCC(C)CN(C)CCc1ccccn1 (stereo unspecified) | 4.1%
[O-][n+]1c2ccc3nonc3c2nn1-c1ccccc1Cl | -17.7%
COc1cc(-c2cc(C(=O)Nc3c(Cl)cc(Cl)cc3Cl)c3ccccc3n2)cc(OC)c1OC | -26.7%
N#C/C(=C\c1ccc(O)c(O)c1)C(=O)Nc1ccccc1 | 12.6µM*!
CCOc1ccc(N(CC(=O)Nc2ccc3c(c2)OCO3)S(=O)(=O)c2ccccc2)cc1 | 6.7%
O=C(NCCc1ccccc1)C1CCN(S(=O)(=O)N2CCCCC2)CC1 | -11.6%
CCOc1ccc(CCNC(=O)COC(=O)CSc2ccccc2C)cc1OCC | -10.6%
CC(C)CCCC(C)NS(=O)(=O)Cc1ccccc1 (stereo unspecified) | 11.3%
Cc1nn(Cc2c(F)c(F)c(F)c(F)c2F)c(C)c1NC(=O)c1c([N+](=O)[O-])c(C)nn1C | 5.6%
COc1ccc(CC(=O)N/N=C(\C)c2cccs2)cc1OC | -3.1%
CCOC(=O)c1ccc(NC(=O)CSc2nnc(-c3cccs3)n2C)cc1 | -9.3%
NC1=NC[C@H](Cc2ccc(O)cc2)N1CCc1cc(C(F)(F)F)cc(C(F)(F)F)c1 | 12.8%
COCCNC(=O)C(=O)N/N=C/c1ccccc1C(F)(F)F | 12.1%
Cc1cccc(N2CCN(CCCNC(=O)Cn3ncc4c([nH]c5ccccc54)c3=O)CC2C)c1 (stereo unspecified) | 1.1%

# (more compounds)
Compound | VDR inhibitor
O=C(Nc1ccccc1O)c1cc(S(=O)(=O)N2CCOCC2)c(Cl)cc1Cl | 18.3%
CCOc1ccc(C(C)=O)cc1COC(=O)C1=COCCO1 | 8.1%
CCOc1ccccc1-c1cc(C(=O)N/N=C/c2cccnc2)c2ccccc2n1 | ?
O=C(N/N=C/C=C\c1ccc([N+](=O)[O-])cc1)c1cccnc1 | -7.1%
Cc1ccc(-n2nnnc2-c2ccco2)cc1 | -9.1%
O=C(Nc1cccnc1Cl)c1noc2c1CCc1ccccc1-2 | 3.0%
Cc1cc(C)c2c(n1)SCC(=O)N2CC(=O)Nc1ccc(C)c(C)c1 | -3.7%&20.6%
COc1ccc(C(=O)N/N=C/c2ccc(OC)c(CN3CCCc4ccccc43)c2)cc1 | -20.1%
CC(=O)c1c(C)[nH]c(C(=O)COC(=O)COc2ccccc2)c1C | -19.3%
O=C(Cn1cnc2ccccc21)Nc1cccc([N+](=O)[O-])c1 | -18.4%
COc1cc2cc(-c3ccc(O)cc3O)nc(C)c2cc1OC | 1.7%
Fc1ccc(CSc2nncn3c2cc2occc23)c(Cl)c1 | -2.2%
CN(C(=O)COC(=O)Cn1cnc2c1c(=O)n(C)c(=O)n2C)C1(C#N)CCCCC1 | -17.4%
COCCCNC(=O)C(Cc1ccccc1)NS(=O)(=O)c1ccc2c(c1)c(=O)n(C)c(=O)n2C (stereo unspecified) | 9.6%
O=[N+]([O-])c1ccc(N2CCN(CCOc3nonc3-c3ccccc3)CC2)c(Cl)c1 | 7.9%
O=c1c(-c2cc(F)cc(F)c2)nc2cnc(N3CCNCC3)nc2n1CCc1ccccc1 | -3.0%
Cc1ccc2c(Cl)cc(Cl)c(OCC(=O)OCC(=O)Nc3ccc(C#N)cc3)c2n1 | -23.1%
CCCCc1ccc(NC(=O)Nc2cnccn2)cc1 | 6.1%
COc1ccc(C(=O)N/C(=C\c2ccc3c(c2)OCO3)C(=O)NCCc2nc3ccccc3[nH]2)cc1 | -19.8%
O=C(Nc1ccc2nc3n(c(=O)c2c1)CCCCC3)c1ccccn1 | -8.2%
O=C(COCc1cc(-c2ccc(F)cc2)on1)Nc1cc(F)ccc1F | 16.7%
CC1Sc2ccc(S(=O)(=O)CCC(=O)N(C)Cc3ccccc3)cc2NC1=O (stereo unspecified) | 0.7%
COc1ccc(NC(=O)NCCC2=CCCCC2)cc1 | -13.5%
CC(C)=NNC(=O)C1=NNC(=O)C1 | -21.2%
CC(=O)c1ccc(OCCCC(=O)OCC(=O)Nc2c(C)nn(-c3ccccc3)c2C)cc1 | 1.8%
COc1ccc(C(=O)c2c3ccccc3[n+]([O-])n2CCCN)cc1 | -14.5%&-22.0%
CCCCCCc1cc2cc(S(=O)(=O)c3ccc(C)cc3)c(=O)oc2cc1O | -1.2%
CCOc1ccc(/C=N/NC(=O)Cc2cccs2)cc1 | -5.0%
CCC(Sc1nc2ncccc2[nH]1)C(=O)NC1CCC(C)CC1 (stereo unspecified) | -5.8%
Cc1ccc2nc(-c3cccc(N)c3)oc2c1 | -6.2%
O=C(Cc1cn2ccsc2n1)NCCc1ccc(F)cc1 | -27.1%
CCOCCCN1CN(Cc2ccccc2)CNC1=S | 2.6%
O=[N+]([O-])c1ccc2[nH]c(O)c(N=NC(=S)Nc3cccnc3)c2c1 | 2.7%
CCc1ccc(OCC(=O)NCCN(C)C)c(Br)c1 | -0.2%
Cc1nnc(SCC(=O)N(C)CC(=O)Nc2ccccc2Cl)s1 | 4.1%
CC1(C)Cc2nc3scc(NC(=O)c4ccccc4)c3cc2CO1 | 9.3%
COc1cc(OC)cc(C(=O)NNC(=O)C(=O)Nc2cc(OC)c(Cl)cc2OC)c1 | 0.9%
Cc1ccc(C)c2[nH]c(=O)c(CN(Cc3nnnn3C3CCCCC3)CC3CCCO3)cc12 (stereo unspecified) | 12.4%
CCC(=N\NC(=O)COc1ccccc1OC)/C(CC)=N/NC(=O)COc1ccccc1OC | 12.7%
O=C(O)c1cc(-c2cccnc2)nc2ccc(Br)cc12 | -10.7%
Nc1nonc1-n1nnc(C(=O)N/N=C/c2ccc(OCc3ccccc3)cc2)c1CNc1ccccc1 | -8.8%
Cc1ccc(C(=O)Nc2nc3c(s2)CCCC3)o1 | -5.0%
Cc1ccc(-n2nc(C)c3c(C)c(CCC(=O)NCc4ccccc4Cl)c(C)nc32)cc1 | 10.5%
Cn1ncc(N=Cc2c(O)ccc3ccccc23)c1C(=O)N1CCOCC1 | 2.0%
O=C(NNC(=O)C12CC3CC(CC(C3)C1)C2)c1ccco1 | 1.0%
Cc1c(C(=O)N2CCOCC2)[nH]c2c1C(=O)CC(c1ccc(Cl)cc1)C2 (stereo unspecified) | 26.0%
O=C(CSc1nc2[nH]ncc2c(=O)[nH]1)Nc1ccc(Cl)c(Cl)c1 | 2.9%
N#C/C(C(=O)NCc1ccccc1)=C1/SC(Cc2ccc(Cl)cc2)C(=O)N1c1ccccc1 (stereo unspecified) | -3.6%
COc1ccc(OC)c(NC(=O)Cn2c(=O)n(CC3CCCO3)c(=O)c3cc(OC)c(OC)cc32)c1 (stereo unspecified) | -11.5%&-14.6%
O=C(NC1CCN(Cc2ccccc2)CC1)c1cccc(NS(=O)(=O)c2ccc(Br)cc2)c1 | -11.4%

# More entries.
Compound | VDR inhibitor
Cc1ccc2nc(-c3ccc(F)cc3)c(NC(C)(C)CC(C)(C)C)n2c1 | -4.5%
Cc1c(C(=O)NCCc2ccccc2)oc2ccc(S(=O)(=O)N3CCC4(CC3)OCCO4)cc12 | 5.3%
CC1=CC(C)C2C(=O)N(CCC[N+](C)(C)C)C(=O)C2C1 (stereo unspecified) | 3.7%
O=C(COc1ccc(Cl)cc1)N1CCN(c2ncccn2)CC1 | 0.5%
Cc1ccc(-c2nc3cc(N)ccc3o2)c(C)c1 | 3.1%&-4.2%
CCSc1nc(=O)n(-c2ccccc2)c(C)c1C(C)=O | -4.5%

# This is a subset (hit frequency here may not be typical).
